# D2 potentiator = potentiates the human D2 dopamine receptor allosterically | P14416 | actives 0.23% (n = 360,000) | potentiation, % (test concentration not listed) | DiscoveRx D2 beta-arrestin cells, luminescence, 90 min; 100% = 57 uM dopamine signal | AID 624464; active = potentiation of 50% or more; inconclusive = 30% to 50%; inactive = 30% or less;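 also: compound concentration not given in the record; tested on top of an EC20 dose of dopamine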
#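 D2 cells co-treated with compound plus 50 nM dopamine (EC20) for 90 min at 37 deg C to detect potentiation. Beta-arrestin recruitment was read as enzyme-fragment luminescence after 1 h at ambient temperature. Full response was set by 57 uM dopamine.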
# D2 agonist = agonists of human D2 dopamine receptor (beta-arrestin); P14416; DiscoveRx PathHunter D2 beta-arrestin, luminescence, 90 min; 100% = 57 uM dopamine signal; activation, % (no concentration beside the values); actives 0.084% (n = 360,000); AID 624465; in the data active = activation above about 40%; inconclusive = about 15% to 40%; inactive = below about 15%; also: compound concentration not given in the record; the text of the record calls up to 30% inactive
#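 Agonist mode: compounds alone added to overnight-plated D2 PathHunter cells for 90 min at 37 C, with 57 uM final dopamine (EC100) defining full response. Beta-arrestin recruitment detected by chemiluminescent reagent, read after 1 h at ambient temperature.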
# TRPML1 inh = human mucolipin-1 channel inhibition; TRPML1-inducible cells, Ca2+ dye fluorescence, FDSS; hits give low values; inhibition of EC80 agonist-evoked calcium signal; actives 0.02% (n = 390,000); activity change, negative = inhibition, % (test concentration not listed); in the data active means activity change below about -50%; inconclusive means about -30% to -50%; inactive means above about -30%;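 also: stimulus is agonist 54-4 at its EC80 concentration; % is scaled to controls: 0 for no effect and ±100 for the full control effect; compound concentration not given in the record; the text of the record puts the active cut at -80%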
#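 Tet-induced TRPML1-DL cells loaded with Ca8 no-wash calcium dye were read kinetically on FDSS. Compound addition was followed by EC80 agonist 54-4 (4 uM final); inhibition was read over 110 s.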
# PINK1 expr mod = PINK1 expression modulation | PINK1 immunofluorescence, high-content cytometry, 24 h | Potency, µM (highest dose often 76.6 µM), inactives show at the highest dose activation (PINK1 increase), actives largely listed as activators | actives 0.2% (n = 410,000) | AID 624263; active = well fitted activation curve with a large enough effect; inconclusive = small, poorly fitted or top-dose-only effect; inactive = flat fitted curve, though single readings scatter; cell line not stated here;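 also: potency is read from the fitted curve at half-maximal effect; % of control where 0% means no effect; nearly all actives have a fitted effect of over 65% in size; a mitochondrial uncoupler was the plate control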
#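 Cells are seeded, rested 12 hours, then given compound at five concentrations or DMSO for 24 hours. After fixation, blocking and antibody staining, PINK1 amount and mitochondrial localization are scored; CCCP serves as control.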
# TRPML1 ag = human mucolipin-1 channel agonism. TRPML1-expressing cells, Ca2+ dye fluorescence, FDSS; host cell line not named in the record; reference of the full effect not given here. activation, % (concentration not given with the values). actives 0.12% (n = 410,000). AID 624414; in the data active = activation above about 50%; inconclusive = about 30% to 50%; inactive = below about 30%; also: 0% is about no effect; the text of the record puts the active cut at 80%
#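 In this qHTS format, compounds were pin-transferred onto Ca8-dye-loaded TRPML1-DL cells induced with Tet overnight, and intracellular Ca2+ fluorescence was recorded kinetically for 110 s after a 10 s baseline. A subsequent 4uM final 54-4 (EC80) addition followed by a second 110 s read served as the antagonist phase.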
# Six1-Eya2 inh = inhibitors of human Six1/Eya2 interaction; Q15475+O00167; AlphaScreen GST-Six1/His-Eya2 binding, biochemical; hits give low values; control for the full effect not named in the record; activity change, % (test concentration not listed); actives 0.56% (n = 360,000); in the data active = activity change below about -65%; inconclusive = about -30% to -65%; inactive = above about -30%; also: % is scaled to controls: 0 for no effect and ±100 for the full control effect; compound concentration not given in the record
# Target sequence (O00167 whole entry, looked up): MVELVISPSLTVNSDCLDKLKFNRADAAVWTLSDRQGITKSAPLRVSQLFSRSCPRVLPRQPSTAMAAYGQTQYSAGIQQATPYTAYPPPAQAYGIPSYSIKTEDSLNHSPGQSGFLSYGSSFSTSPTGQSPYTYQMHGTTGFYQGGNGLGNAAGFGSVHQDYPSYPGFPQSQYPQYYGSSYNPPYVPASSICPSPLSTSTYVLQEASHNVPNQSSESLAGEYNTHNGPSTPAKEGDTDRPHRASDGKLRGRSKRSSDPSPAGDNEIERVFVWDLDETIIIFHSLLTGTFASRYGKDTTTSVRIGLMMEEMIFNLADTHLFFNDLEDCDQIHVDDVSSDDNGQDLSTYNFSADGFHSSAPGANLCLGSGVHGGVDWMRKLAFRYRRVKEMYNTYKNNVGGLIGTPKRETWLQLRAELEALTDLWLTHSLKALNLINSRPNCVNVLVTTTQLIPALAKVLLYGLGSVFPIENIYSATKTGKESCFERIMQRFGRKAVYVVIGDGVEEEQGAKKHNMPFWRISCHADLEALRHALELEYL
# Target sequence (Q15475 whole entry, looked up): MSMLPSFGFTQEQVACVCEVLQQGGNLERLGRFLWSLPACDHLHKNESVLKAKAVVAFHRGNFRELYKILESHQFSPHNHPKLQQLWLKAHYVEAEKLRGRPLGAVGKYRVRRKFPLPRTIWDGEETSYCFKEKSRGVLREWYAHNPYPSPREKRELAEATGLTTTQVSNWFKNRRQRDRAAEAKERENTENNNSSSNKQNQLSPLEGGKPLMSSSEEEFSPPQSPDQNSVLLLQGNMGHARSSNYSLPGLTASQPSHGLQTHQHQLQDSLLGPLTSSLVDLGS
#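 Homogeneous AlphaScreen proximity assay pairing GST-Six1 with His-tagged Eya2 (added as 5X mix: 250 nM and 500 nM) in 50 mM Tris pH 8.0, 300 mM NaCl, 1 mM TCEP. Glutathione donor and nickel acceptor beads; 1 h, 37 °C, dark.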
# An asterisk follows results filed as active; u = inconclusive; x = no result given; & = joins results of further samples; [ ] = another dose, or the depositor's remark.
SMILES,D2 potentiator,D2 agonist,TRPML1 inh,PINK1 expr mod,TRPML1 ag,Six1-Eya2 inh
O=C(NCCN1C(=O)CSC1=O)C1CC(=O)N(c2ccccc2)C1 (stereo not given),13,-2.6,16,x,0.1,3
O=C(O)c1cccnc1SCC(=O)N1CCCCCC1,-1,-3.0,-3,12%[38.3 µM],-0.2,0
CCCn1nnc(NC(=O)COc2ccccc2Cl)n1,-13,-2.5,-5,11%[38.3 µM],-0.6,2
Cc1ccc2nc(SCC(=O)Nc3cc(C)on3)[nH]c2c1,-7,-2.9,-15,-0.7%[38.3 µM],0.1,-2
O=C(C(c1ccccc1)c1ccccc1)N1CCN(Cc2ccco2)CC1,-11,-0.2,-9,x,0.5,-1
O=S(=O)(c1cc(Cl)ccc1Cl)N1CCCCC1,-10,-4.1,71,-0.1%,1.5,18
CCOC(=O)Nc1ccc(S(=O)(=O)NCCCN2CCOCC2)cc1,-4,-0.1,-3,-2.6%,-0.5,1
COc1ccc(C(=O)NCCCN2CCOCC2)cc1OC,5,-1.1,13,-0.6%,-0.5,8
CC1CCCC(C)N1CCCNC(=O)CN1C(=O)COc2ccc(S(=O)(=O)N3CCOCC3)cc21 (stereo not given),-11,-5.1,-2,-0.5%,-0.1,1
Cc1ccc(NC(=O)c2ccc(C(=O)c3ccccc3)cc2)nc1,-11,-1.9,19,4.4%,2.7,2
O=C(NCCCN1CCN(c2cccc(Cl)c2)CC1)c1cccc(N2CCCC2=O)c1,-42,2.0,38,-1.3%,-0.4,u
O=C(CSc1nnc(-c2ccncc2)n1-c1ccccc1Cl)Nc1ccc(C(=O)O)cc1,-7,2.7,6,2.1%,0.3,8
O=C1N(c2ccccc2C(F)(F)F)O[C@]1(c1ccccc1)C1CCCC1,0,5.0,2,-1.0%,0.3,19
COc1ccc(NC(=O)Cn2c(=O)c(C)nc3ccccc32)cc1Cl,-4,-2.3,10,1.5%,1.0,6
Cc1ccc(C(=O)CCNc2ccc(Cl)cc2)o1,-11,-5.0,1,-0.5%,-0.2,-3
COc1ccc(-c2nc(C)sc2C)cc1,-4,-4.7,20,1.4%,3.1,14
CCC(C(=O)NCC1CCCO1)N(C(=O)c1snc(C(N)=O)c1N)c1ccc(Cl)cc1 (stereo not given),0,-1.0,23,0.7%,-0.7,5
CCOc1ccc(N(CC(=O)NCc2ccc(OC)cc2)S(=O)(=O)c2c(C)[nH]c(=O)[nH]c2=O)cc1,-1,8.8,0&13,-0.2%&1.9%,-0.7&-0.5,8
Cn1cc[n+](C)c1COc1ccc(C=O)cc1,-2,-1.3,-14,0.9%,0.0,-5
O=C1COc2ccccc2N1Cc1ccccc1Cl,16,2.9,-13,3.0%,2.8,13

# Laid out differently: four of the compounds above
canonical_smiles: Cc1ccc(NC(=O)c2ccc(C(=O)c3ccccc3)cc2)nc1
  D2 potentiator = -11	D2 agonist = -1.9	TRPML1 inh = 19	PINK1 expr mod = 4.4%	TRPML1 ag = 2.7	Six1-Eya2 inh = 2

canonical_smiles: O=C(NCCCN1CCN(c2cccc(Cl)c2)CC1)c1cccc(N2CCCC2=O)c1
  D2 potentiator = -42	D2 agonist = 2.0	TRPML1 inh = 38	PINK1 expr mod = -1.3%	TRPML1 ag = -0.4	Six1-Eya2 inh = u

canonical_smiles: O=C(CSc1nnc(-c2ccncc2)n1-c1ccccc1Cl)Nc1ccc(C(=O)O)cc1
  D2 potentiator = -7	D2 agonist = 2.7	TRPML1 inh = 6	PINK1 expr mod = 2.1%	TRPML1 ag = 0.3	Six1-Eya2 inh = 8

canonical_smiles: O=C1N(c2ccccc2C(F)(F)F)O[C@]1(c1ccccc1)C1CCCC1
  D2 potentiator = 0	D2 agonist = 5.0	TRPML1 inh = 2	PINK1 expr mod = -1.0%	TRPML1 ag = 0.3	Six1-Eya2 inh = 19

# Continuation.
SMILES,D2 potentiator,D2 agonist,TRPML1 inh,PINK1 expr mod,TRPML1 ag,Six1-Eya2 inh
CC(=O)Nc1ccc(NC(=O)c2cc(-c3cc(F)ccc3OCC3CCCO3)n[nH]2)cc1 (stereo not given),8,u,x,2.3%,-0.9,-8
CC(=O)c1ccc(NC(=O)CSc2nnc(NC(=O)c3ccco3)s2)cc1,-14,-4.2,-3,u,0.6,-1
C[C@H](c1ccccc1)N1C[C@@H](COCc2ccccc2)Oc2cc(N3CCC[C@H]3CO)ccc2S1(=O)=O,x,x,x,1.3%,-0.4,-15
COc1ccccc1Nc1cc(C)nc(Nc2ccccc2OC)n1,-34,-7.6,-14,6.1%,1.4,-10
O=C(CNC(=O)c1ccc(-c2ccccc2)cc1)OCc1ccc(Cl)cc1,-6,0.8,14,u,1.3,4
COc1cc(C(C)=O)ccc1COc1ccc(C(=O)OCC(N)=O)cc1OC,6,2.8,-8,-1.7%,1.2,0
COc1cccc(Nc2nc3cc(C)ccc3cc2C)c1,-12,-1.0,-2,5.8%,-0.3,16
CCOC(=O)c1sc(NC(=O)CSc2nnnn2-c2ccccc2)c(C(=O)OCC)c1C,10,-5.0,-8,12%,1.7,7
CCN1CCN(C(=O)CCN2C(=O)c3ccccc3S2(=O)=O)CC1,25,11,5,2.1%,0.0,7
CCN(C(=O)CN1C(=O)/C(=C/c2ccc(F)cc2)SC1=S)C1CCS(=O)(=O)C1 (stereo not given),-6,3.8,-10,0.6%,-0.4,-6
CC(C)Cc1nnc(NC(=O)CCNC(=O)c2ccco2)s1,1,-4.8,2,1.1%,0.0,-1
COc1ccc(S(=O)(=O)N(C)C[C@H]2Oc3ccc(NS(=O)(=O)c4ccccc4)cc3C(=O)N([C@H](C)CO)C[C@@H]2C)cc1,x,-0.2,11,0.0%,0.0,2
COc1cc(C2c3c(-c4ccccc4)n[nH]c3C(=O)N2c2ccc(C(=O)O)cc2)ccc1O (stereo not given),-3,-4.3,-3,-1.7%,-0.4,-9
Cc1ccc(O)c(NC(=O)/C=C/C(=O)O)c1,0,-2.9,10,1.9%,0.6,-2
CCC(=O)c1ccc(N2CCN(C(=O)c3cc([N+](=O)[O-])ccc3N3CCN(C)CC3)CC2)c(F)c1,-10,-4.0,-8,-2.1%[38.3 µM],-0.2,-9
O=C(NCCc1ccc(Cl)cc1)c1ccc2c(c1)OCCO2,-23,-1.7,x,3.4%,x,6
Cc1ccc(S(=O)(=O)N2CCN(S(=O)(=O)c3ccccc3Br)CC2)cc1,x,1.0,-1,2.8%,-1.0,3
COCCn1c(=NC(=O)c2cc3ccccc3oc2=O)sc2cc(S(N)(=O)=O)ccc21,-29,-1.4,10,14%,-0.1,2
CC(=NO)C1CCC2C3CCC4=CC(=NO)CCC4(C)C3C(=O)CC12C (stereo not given),-13,-2.1,-8,-0.9%,-1.1,-6
Cc1ccc(OCC(=O)N2CCN(c3ccc([N+](=O)[O-])c(N4CCOCC4)c3)CC2)cc1,-22,-3.8,30,4.3%[38.3 µM],1.9,-16
O=C(O)c1ccc(Cn2cc(C(F)(F)F)ccc2=O)cc1,5,-1.6,12,2.3%,-0.4,-1
CC1CCN(S(=O)(=O)c2ccc(NC(=O)CN3CCN(C)CC3)cc2)CC1,-3,-0.4,-24,11%[38.3 µM],0.7,3
Cc1cccc(C(=O)N[C@@H](C)C(=O)N2CCN(c3ncccn3)CC2)c1,-2,-4.8,-5,-1.3%,-0.3,2
CC(C)C(=O)OC1=CN(Cc2ccccc2)S(=O)(=O)c2ccccc21,x,x,-7,0.3%,3.2,x
Nc1sc2c(c1C(=O)c1ccccc1)CCCC2,3,0.2,42,0.6%,0.0,-3
Nc1nc(CN2CCCCCC2)nc(Nc2ccc(F)cc2)n1,-14,-1.2,11,0.8%,1.4,-19
O=C(NCC(=O)N(c1ccc(F)cc1)C(C(=O)NC1CCCCC1)c1cccnc1)c1ccco1 (stereo not given),-5,-1.9,12,4.9%,-0.9,6
O=c1c2ccccc2[nH]c(=S)n1C1CCCCC1,-4,2.9,13,12%,-0.1,13
COc1ccccc1NC(=O)Cn1cc(S(=O)(=O)Cc2ccccc2)c2ccccc21,x,x,14,-0.3%,1.3,x
COc1ccc(Cl)cc1C(=O)NCCN(C)C,-26,-2.0,16,0.3%,1.1,1
CC(NC(=O)COC(=O)/C=C/c1cccc(F)c1)c1ccccc1 (stereo not given),-13,-2.5,-6,1.5%,2.4,6
C/C(Cn1ncc(N2CCOCC2)c(Cl)c1=O)=N\O,-8,4.2,4,0.2%,0.7,8
CCc1nc2ccc(C(=O)O)cc2nc1CC,0,0.1,2,-2.3%,0.3,-4
O=C(O)c1ccc(Cl)c(NC(=O)C2CCN(S(=O)(=O)c3ccc4c(c3)OCCO4)CC2)c1,-13,0.0,-4,0.5%,-0.2,-24
N#C/C(=C\c1ccncc1)c1nc2ccccc2o1,4,-0.2,-6,-0.5%,2.1,-4
CSCCC(NC(=O)c1cc(C(C)(C)C)oc1C)C(=O)O (stereo not given),-10,-2.4,-8,5.6%[38.3 µM],0.6,-1
CC1(C(=O)NS(=O)(=O)c2cccc(Cl)c2)CCN1C(=O)c1ccccc1CCc1ccccc1 (stereo not given),8,8.9,x,0.1%,-0.9,-7
CC(C)c1nnc(NC(=O)c2nc(S(=O)(=O)Cc3ccccc3F)ncc2Cl)s1,10,-9.3,13,-1.6%,-0.8,-13
COc1ccc2[nH]c3c(=O)n(CCCCCC(=O)NCCC(C)C)c(=S)[nH]c3c2c1,-6,-3.4,-20,1.0%,0.9,-1
COc1cc(OC)c(C(=O)NC2CCCCCC2)cc1OC,-6,-2.1,-10,1.1%,-0.3,30
CCC(=O)Nc1ccc(Cl)c(NC(=O)c2cccc(OC)c2)c1,1,3.1,-1,-0.2%,-1.1,1
COc1ccc(OC)c(NC(=O)Cc2cccs2)c1,-7,-1.8,-8,-0.8%,-1.5,-25
O=C(CSc1nnc(NC(=O)c2ccccc2)s1)NCc1ccco1,-5,0.5,-2,0.4%,-0.7,-1
COc1ccc(-c2csc(NC(=O)c3cc(C)oc3C)n2)cc1OC,14,13,56,0.9%,1.1,-16
O=C(N=Nc1c(O)[nH]c2ccccc12)c1cc(-c2ccc(F)cc2)n[nH]1,-2,-2.2,22,-0.3%,0.0,-7
COc1cc2ccccc2c2c1CCCC2=O,-9,-3.9,4,0.1%,0.0,15
COC(C(=O)N1CCC(n2nccc2NC(=O)C2CC2)CC1)c1ccccc1 (stereo not given),2,1.5,-5,0.4%,-0.9,0
CCn1nc(C(=O)Nc2ccc(C)c(C)c2)c(Cl)c1Cl,-23,-1.1,1,15%,1.1,2
CNC(=O)NC(=O)COC(=O)CCc1nc(=O)c2ccccc2n1C,-9,0.0,15,17%,1.9,2
Cc1ccc(Cl)cc1N1CCN(Cc2nc3c(c(=O)[nH]c(=O)n3C)n2CCc2ccccc2)CC1,17,0.1,1,6.7%,-0.6,9
O=C(Nc1ccccc1)c1cc(Cl)nc2ccccc12,-13,-0.1,-18,2.3%,-0.5,-22
Cc1ccc2c(NC(=O)c3ccc(Br)o3)cccc2n1,-16,-0.3,63,-0.6%,-0.2,1
CN1CCN(S(=O)(=O)c2ccc(Cl)c(C(F)(F)F)c2)CC1,-19,3.7,33,-1.3%,0.3,3
